# HIV Env fusion = inhibitors of HIV-1 Env-driven cell-cell fusion, primary screen, HeLa-JRFL effector, CEM21 target cells, luciferase. inhibition, % at 12.3 µM. hit rate 1.1% among 360,000;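 active = mean replicate inhibition score of at least 50 and every replicate individually at or above 50; inconclusive = only one of the two criteria met; inactive = mean below 50 and not all replicates reaching 50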;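 note: 0% = plate neutral controls and 100% = maraviroc near 300 nM; one replicate is shown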
# UUG fidelity = modulators of yeast start codon fidelity, primary screen, whole organism, S. cerevisiae, single point, plate reader | S. cerevisiae UUG-firefly luciferase reporter, luminescence/redox ratio | activity score, % at 18.7 µM | hit rate 0.13% among 350,000;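 active = replicate mean at a twofold rise or more, about +100% in these data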;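 note: firefly luciferase made from a UUG start codon reports start codon fidelity; reporter light over untreated wells divided by growth signal over untreated wells; some hits fall short of that in this replicate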
# * = called active by the depositor; ? = inconclusive; [ ] = remark or other dose. Some of the compounds tested; rates above refer to the full screens.
HIV Env fusion | UUG fidelity | SMILES
9[16.7 µM] | -4 | O=C(C[C@@H]1C[C@H]2c3cc(NC(=O)CC4CC4)ccc3O[C@H]2[C@@H](CO)O1)NCCc1ccccc1
8[16.7 µM] | 1 | C[C@@H]1CN([C@H](C)CO)S(=O)(=O)c2ccc(C#Cc3ccncc3)cc2O[C@@H]1CN(C)C(=O)C1CCCCC1
-13[16.7 µM] | 7 | COc1ccc(NC(=O)Nc2ccc3c(c2)C(=O)N([C@@H](C)CO)C[C@@H](C)[C@@H](CN(C)C)OCCCC[C@H](C)O3)cc1
11[16.7 µM] | -8 | N#C[C@H]1[C@H](c2ccccc2)[C@@H](CO)N1C(=O)c1cccnc1
-25[16.7 µM] | 23 | C[C@H](CO)N1C[C@H](C)[C@H](CN(C)C(=O)Nc2ccccc2)Oc2cc(-c3cccc(C(=O)N(C)C)c3)ccc2S1(=O)=O
-14[16.7 µM] | 6 | C[C@H]1CN([C@@H](C)CO)C(=O)c2cc(-c3cncnc3)cnc2O[C@@H]1CN(C)Cc1ccncc1
2[16.7 µM] | -12 | C[C@H]1CN([C@@H](C)CO)C(=O)c2cccc(NC(=O)Nc3ccc4c(c3)OCO4)c2O[C@H]1CN(C)S(=O)(=O)c1ccc(F)cc1
-8[16.7 µM] | 33 | Cc1ccc(S(=O)(=O)Nc2ccc3c(c2)C(=O)N([C@@H](C)CO)C[C@H](C)[C@H](CN(C)C(=O)c2ccccc2)OCCCC[C@@H](C)O3)cc1
2[16.7 µM] | 18 | C[C@H](CO)N1C[C@H](C)[C@@H](CN(C)C(=O)NC2CCCCC2)Oc2c(NC(=O)Nc3cccc4ccccc34)cccc2C1=O
-25[16.7 µM] | -2 | COCC#Cc1cnc2c(c1)C(=O)N([C@@H](C)CO)C[C@H](C)[C@H](CN(C)C(=O)Cc1ccccc1)O2
3[16.7 µM] | 10 | COc1ccc(S(=O)(=O)N(C)C[C@@H]2OCCCC[C@H](C)Oc3ccc(NC(=O)CCCN(C)C)cc3C(=O)N([C@H](C)CO)C[C@@H]2C)cc1
5[16.7 µM] | 12 | C[C@@H]1CN([C@H](C)CO)C(=O)c2cc(N(C)C)ccc2O[C@H]1CN(C)Cc1ccc(Cl)c(Cl)c1
38[16.7 µM] | -19 | CNC[C@@H]1Oc2ccc(NC(=O)C3CCCCC3)cc2CC(=O)N([C@@H](C)CO)C[C@@H]1C
-5[16.7 µM] | 2 | Cc1noc(C)c1S(=O)(=O)Nc1ccc2c(c1)C(=O)N([C@@H](C)CO)C[C@@H](C)[C@H](CN(C)S(=O)(=O)c1ccc(Cl)cc1)OCCCC[C@H](C)O2
28 | 6 | CC1=C(C(=O)N2CCOCC2)CC(CC(=O)NCCCCc2ccccc2)C(=O)N1Cc1ccc(C(C)(C)C)cc1 (stereo not given)

# Among those listed so far, 3 contain a halogen:
HIV Env fusion | UUG fidelity | SMILES
2[16.7 µM] | -12 | C[C@H]1CN([C@@H](C)CO)C(=O)c2cccc(NC(=O)Nc3ccc4c(c3)OCO4)c2O[C@H]1CN(C)S(=O)(=O)c1ccc(F)cc1
5[16.7 µM] | 12 | C[C@@H]1CN([C@H](C)CO)C(=O)c2cc(N(C)C)ccc2O[C@H]1CN(C)Cc1ccc(Cl)c(Cl)c1
-5[16.7 µM] | 2 | Cc1noc(C)c1S(=O)(=O)Nc1ccc2c(c1)C(=O)N([C@@H](C)CO)C[C@@H](C)[C@H](CN(C)S(=O)(=O)c1ccc(Cl)cc1)OCCCC[C@H](C)O2

# Next results.
HIV Env fusion | UUG fidelity | SMILES
15[16.7 µM] | 27 | C[C@@H]1CN([C@@H](C)CO)C(=O)Cc2cc(NC(=O)Cc3ccccc3)ccc2O[C@@H]1CN(C)S(=O)(=O)c1cccs1
4[16.7 µM] | 1 | O=C(N[C@@H]1CC[C@H](CCn2cc(-c3ccccc3)nn2)O[C@H]1CO)c1ccccc1F
9[16.7 µM] | 27 | C[C@@H]1CN([C@@H](C)CO)C(=O)c2cccc(NC(=O)c3cnccn3)c2O[C@@H]1CN(C)Cc1ccc(Oc2ccccc2)cc1
-5[16.7 µM] | -11 | COc1ccc(NC(=O)N(C)C[C@@H]2Oc3c(NS(C)(=O)=O)cccc3C(=O)N([C@@H](C)CO)C[C@H]2C)cc1
3[16.7 µM] | -1 | CNC[C@@H]1Oc2cc(C#CCN(C)C)ccc2S(=O)(=O)N([C@H](C)CO)C[C@H]1C
-2[16.7 µM] | 18 | Cc1noc(C)c1S(=O)(=O)Nc1ccc2c(c1)C(=O)N([C@@H](C)CO)C[C@@H](C)[C@H](CN(C)Cc1ccc(Cl)c(Cl)c1)OCCCC[C@@H](C)O2
-11[16.7 µM] | -1 | C[C@H](O)C#Cc1cnc2c(c1)C(=O)N([C@H](C)CO)C[C@@H](C)[C@@H](CN(C)C(=O)Cc1ccccn1)O2
15[16.7 µM] | -4 | C[C@@H]1CCCCO[C@@H](CN(C)S(=O)(=O)c2ccccc2)[C@@H](C)CN([C@@H](C)CO)C(=O)c2cc(NC(=O)NC3CCCCC3)ccc2O1
-24[16.7 µM] | -7 | CNC[C@H]1Oc2cc(C#Cc3ccncc3)ccc2S(=O)(=O)N([C@@H](C)CO)C[C@@H]1C
16[16.7 µM] | 13 | COc1ccc(CN(C)C[C@@H]2OCCCC[C@H](C)Oc3ccc(NC(=O)c4ccccc4)cc3C(=O)N([C@H](C)CO)C[C@H]2C)cc1
1[16.7 µM] | -9 | O=C(N[C@H]1CC[C@@H](CCNS(=O)(=O)c2ccc(F)cc2)O[C@@H]1CO)c1cccc(F)c1
-30[16.7 µM] | 22 | C[C@@H]1CCCCO[C@@H](CN(C)C(=O)CCC(F)(F)F)[C@@H](C)CN([C@@H](C)CO)C(=O)c2cc(NS(=O)(=O)c3cccs3)ccc2O1
12[16.7 µM] | 16 | C[C@@H]1CN([C@@H](C)CO)C(=O)c2cc(-c3ccc(F)cc3)cnc2O[C@H]1CN(C)Cc1cncnc1
27[16.7 µM] | 20 | C[C@@H]1CCCCO[C@H](CN(C)CC2CCCCC2)[C@H](C)CN([C@H](C)CO)C(=O)c2cc(NC(=O)C3CCCCC3)ccc2O1
-25[16.7 µM] | 12 | COc1cccc(NC(=O)N(C)C[C@@H]2Oc3cc(-c4ccccc4OC)ccc3S(=O)(=O)N([C@H](C)CO)C[C@@H]2C)c1
1[16.7 µM] | -5 | C[C@H](CO)N1C[C@H](C)[C@H](CN(C)Cc2ccc(C(=O)O)cc2)Oc2ncc(C3=CCCCC3)cc2C1=O
-4[16.7 µM] | 2 | Cc1noc(C)c1NC(=O)N(C)C[C@@H]1Oc2ccc(NC(=O)Cc3cn(C)c4ccccc34)cc2CC(=O)N([C@H](C)CO)C[C@H]1C
-2[16.7 µM] | 13 | C[C@@H]1CN([C@@H](C)CO)C(=O)c2cc(-c3ccccc3)cnc2O[C@@H]1CN(C)C(=O)c1ccccc1F
8[16.7 µM] | -8 | COCC(=O)Nc1ccc2c(c1)[C@H]1C[C@H](CC(=O)NCc3ccc(Cl)cc3)O[C@H](CO)[C@H]1O2
10[16.7 µM] | 35 | COc1ccc(CN(C)C[C@H]2OCCCC[C@@H](C)Oc3ccc(NC(=O)Nc4ccc(OC)cc4)cc3C(=O)N([C@@H](C)CO)C[C@H]2C)cc1
5[16.7 µM] | -3 | C[C@@H]1CN([C@H](C)CO)S(=O)(=O)c2ccc(-c3cccnc3)cc2O[C@@H]1CN(C)C(=O)C1CCCCC1
6[16.7 µM] | -15 | C[C@@H]1CN([C@@H](C)CO)C(=O)c2cccc(NC(=O)Nc3ccc4c(c3)OCO4)c2O[C@H]1CN(C)Cc1ccncc1
15[16.7 µM] | -3 | C[C@@H]1CN([C@@H](C)CO)C(=O)c2cc(NS(=O)(=O)c3cn(C)cn3)ccc2O[C@@H](C)CCCCO[C@@H]1CN(C)Cc1ccccc1
13[16.7 µM] | -6 | C[C@@H]1CN([C@@H](C)CO)C(=O)c2cc(/C=C/c3ccccc3)cnc2O[C@@H]1CN(C)C(=O)Cc1ccccn1
6[16.7 µM] | 15 | CC(C)NC(=O)Nc1ccc2c(c1)C(=O)N(C)[C@H]1CC[C@@H](CC(=O)NCC(F)(F)F)O[C@@H]1CO2
12[16.7 µM] | 43 | CNC[C@H]1Oc2ncc(-c3ccccc3C)cc2C(=O)N([C@@H](C)CO)C[C@H]1C
45[16.7 µM] | 13 | Cc1cc(C(=O)Nc2cccc3c2O[C@@H](CN(C)Cc2ccc(Oc4ccccc4)cc2)[C@@H](C)CN([C@@H](C)CO)C3=O)n(C)n1
-69[16.7 µM] | -11 | O=C(O)C1=C[C@@H](c2ccc3c(c2)Cc2ccccc2-3)C[C@@H](OCCCCO)O1
-8[16.7 µM] | -14 | CCCC(=O)Nc1ccc2c(c1)C(=O)N(C)C[C@@H](OC)[C@H](C)CN[C@@H](C)CO2
? | 6 | CN(C)C(=O)c1ccc(-c2ccc([C@H]3[C@@H](C#N)N(C(=O)Nc4ccccc4F)[C@H]3CO)cc2)cc1
5[16.7 µM] | 8 | COc1cccc(-c2ccc3c(c2)O[C@H](CN(C)C(=O)C2CCC2)[C@@H](C)CN([C@@H](C)CO)S3(=O)=O)c1
-5[16.7 µM] | 1 | COc1ccc(CN(C)C[C@H]2Oc3ccc(NC(=O)C4CCCCC4)cc3CC(=O)N([C@H](C)CO)C[C@H]2C)cc1
9[16.7 µM] | -2 | COC(=O)C[C@@H]1C[C@H]2c3cc(NC(=O)CN(C)C)ccc3O[C@H]2[C@@H](CO)O1
1[16.7 µM] | 5 | CN(C)CC(=O)Nc1ccc2c(c1)[C@@H]1C[C@H](CC(=O)NCCc3ccccc3)O[C@H](CO)[C@@H]1O2
27[16.7 µM] | 3 | C[C@@H]1CN([C@H](C)CO)C(=O)c2cc(NS(=O)(=O)c3ccccc3)ccc2O[C@@H]1CN(C)Cc1ccc(-c2ccccc2)cc1
? | -1 | C/C=C/c1ccc2c(c1)O[C@H](CN(C)C)[C@@H](C)CN([C@@H](C)CO)S2(=O)=O
30[16.7 µM] | 0 | C[C@H]1CN([C@@H](C)CO)S(=O)(=O)c2ccc(-c3ccccc3)cc2O[C@@H]1CN(C)Cc1cccc(F)c1
-8[16.7 µM] | 10 | COCC#Cc1ccc2c(c1)O[C@@H](CN(C)C(=O)C1CCOCC1)[C@@H](C)CN([C@@H](C)CO)S2(=O)=O
-9[16.7 µM] | 13 | C[C@@H]1CN([C@@H](C)CO)C(=O)c2cc(NC(=O)Cc3ccccc3)ccc2O[C@@H]1CN(C)CC1CCCCC1
20[16.7 µM] | 3 | C[C@@H]1CN([C@@H](C)CO)C(=O)c2cc(NC(=O)Nc3ccc4c(c3)OCO4)ccc2O[C@@H]1CN(C)Cc1ccc(C(F)(F)F)cc1
12[16.7 µM] | -16 | C[C@@H]1CN([C@@H](C)CO)C(=O)c2cc(NC(=O)Nc3cccc4ccccc34)ccc2O[C@@H](C)CCCCO[C@H]1CN(C)C(=O)Cc1ccccc1
-7[16.7 µM] | 4 | COC(=O)C[C@@H]1CC[C@H]2[C@@H](COc3ccc(NC(=O)Nc4cccc(C)c4)cc3C(=O)N2C)O1
5[16.7 µM] | -4 | COc1ccc(S(=O)(=O)N[C@@H]2CC[C@H](CCn3cc(C(C)C)nn3)O[C@H]2CO)cc1
25[16.7 µM] | -1 | COc1cccc(S(=O)(=O)N(C)C[C@@H]2Oc3cc(C4=CCCC4)ccc3S(=O)(=O)N([C@@H](C)CO)C[C@H]2C)c1
-10[16.7 µM] | 5 | Cc1ccc(S(=O)(=O)N(C)C[C@@H]2OCCCC[C@@H](C)Oc3ccc(NC(=O)Nc4c(C)noc4C)cc3C(=O)N([C@@H](C)CO)C[C@H]2C)cc1
11[16.7 µM] | 5 | CCC(=O)N(C)C[C@H]1Oc2ncc(C#CC3(O)CCCC3)cc2C(=O)N([C@@H](C)CO)C[C@@H]1C
3[16.7 µM] | 8 | C[C@H](CO)N1C[C@H](C)[C@H](CN(C)C(=O)Nc2ccccc2)Oc2ncc(C#Cc3cccc(F)c3)cc2C1=O
22[16.7 µM] | -7 | COc1ccccc1-c1cn(CC[C@H]2CC[C@H](NC(=O)C3CCC3)[C@@H](CO)O2)nn1
-26[16.7 µM] | -6 | C[C@@H]1CCCCO[C@@H](CN(C)C(=O)c2ccccc2)[C@@H](C)CN([C@H](C)CO)C(=O)c2cc(NC(=O)Nc3ccc(F)cc3)ccc2O1
0[16.7 µM] | 3 | C[C@@H]1CN([C@H](C)CO)C(=O)c2cc(NS(=O)(=O)c3cccs3)ccc2O[C@@H]1CN(C)Cc1ccc(C(F)(F)F)cc1
9[16.7 µM] | 3 | O=C(NCC[C@@H]1CC[C@H](NS(=O)(=O)Cc2ccccc2)[C@@H](CO)O1)C1CCOCC1
9[16.7 µM] | -3 | C[C@@H]1CN([C@H](C)CO)C(=O)Cc2cc(NC(=O)Cc3cn(C)c4ccccc34)ccc2O[C@@H]1CN(C)C(=O)Nc1ccc(C(F)(F)F)cc1
9[16.7 µM] | -6 | C[C@@H]1CCCCO[C@H](CN(C)S(C)(=O)=O)[C@H](C)CN([C@@H](C)CO)C(=O)c2cc(NC(=O)Nc3cccc4ccccc34)ccc2O1

# Shown field by field: 4 of the compounds above
> C[C@@H]1CN([C@@H](C)CO)C(=O)c2cc(NC(=O)Nc3cccc4ccccc34)ccc2O[C@@H](C)CCCCO[C@H]1CN(C)C(=O)Cc1ccccc1
  HIV Env fusion: 12[16.7 µM]	UUG fidelity: -16
> COC(=O)C[C@@H]1CC[C@H]2[C@@H](COc3ccc(NC(=O)Nc4cccc(C)c4)cc3C(=O)N2C)O1
  HIV Env fusion: -7[16.7 µM]	UUG fidelity: 4
> COc1ccc(S(=O)(=O)N[C@@H]2CC[C@H](CCn3cc(C(C)C)nn3)O[C@H]2CO)cc1
  HIV Env fusion: 5[16.7 µM]	UUG fidelity: -4
> COc1cccc(S(=O)(=O)N(C)C[C@@H]2Oc3cc(C4=CCCC4)ccc3S(=O)(=O)N([C@@H](C)CO)C[C@H]2C)c1
  HIV Env fusion: 25[16.7 µM]	UUG fidelity: -1

# Screening results from PubChem BioAssay.
